NS1 inh – influenza NS1 inhibition | S. cerevisiae slowed by influenza A NS1, growth recovery by OD600 | 270,000 tested, 0.4% active | Potency, µM (series often up to 46.1 µM), inactives show top-dose activity, positive = more growth; active means well fitted rising curve with a large enough effect; inconclusive means small, poorly fitted or top-dose-only effect; inactive means no such curve, though single readings can be large or run the other way; further: nearly all actives have a fitted effect of over 50% in size
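Read-out: OD600 growth recovery of NS1-expressing budding yeast. Cells grown overnight at 30C in -URA glucose medium, washed, resuspended and diluted 1:100 in 2% galactose assay medium, pH 6.0. Same strain lacking NS1 served as positive control.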
RE007 growth inh – less growth of the S. pombe RE007 Vpr strain; S. pombe RE007 Vpr strain, BacTiter-Glo ATP luminescence, 24 h; control for the full effect not named in the record; Potency, µM (top dose mostly 92.2 µM), for inactives: top-dose activity change, negative = less growth; 360,000 tested, 0.21% active; active = well fitted falling curve with a large enough effect; inconclusive = small, poorly fitted or top-dose-only effect; inactive = no such curve, though single readings can be large or run the other way;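 further: on the % scale 0 is the no-effect control and ±100 the full control effect; nearly all actives have a fitted effect of over 50% in size; the assay follows cell death caused by Vpr and the record does not say whether a fall means rescue or toxicity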
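Fission yeast strain RE007, carrying one chromosomally integrated HIV-1 vpr copy, was seeded at OD 0.01 in PMG+AL medium with 23 nL pinned compound. After 24 h at 30 °C and 99% humidity, viability was read by BacTiter-Glo luminescence.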
2A StopGo – lowers the luciferase signal of an FMDV 2A StopGo reporter. Potency, µM (titrated, usually from 57.9 µM), inactives show at the highest dose signal change, negative = less light. human cells with a luciferase reporter of 2A StopGo recoding; control for the full effect not named in the record. AID 1159524. 410,000 tested, 1.2% active; active = well fitted falling curve with a large enough effect; inconclusive = small, poorly fitted or top-dose-only effect; inactive = no such curve, though single readings can be large or run the other way; tested in HEK293T cells; further: on the % scale 0 is the no-effect control and ±100 the full control effect; nearly all actives have a fitted effect of over 45% in size; luciferase light after 4 h
Cruzain inh noDet – blocks cruzain activity in detergent-free assay; P25779; purified cruzain, Z-FR-AMC fluorescence, no detergent; Potency, µM, inactives show max response, negative = inhibition, most hits filed as inhibitors; 200,000 tested, 2.3% active;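 further: plate controls were enzyme without inhibitor for no effect and buffer without enzyme for full effect; nearly all actives have a fitted effect of over 40% in size; top concentration of the series not given in the record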
Target sequence (P25779 123-467 limits assumed): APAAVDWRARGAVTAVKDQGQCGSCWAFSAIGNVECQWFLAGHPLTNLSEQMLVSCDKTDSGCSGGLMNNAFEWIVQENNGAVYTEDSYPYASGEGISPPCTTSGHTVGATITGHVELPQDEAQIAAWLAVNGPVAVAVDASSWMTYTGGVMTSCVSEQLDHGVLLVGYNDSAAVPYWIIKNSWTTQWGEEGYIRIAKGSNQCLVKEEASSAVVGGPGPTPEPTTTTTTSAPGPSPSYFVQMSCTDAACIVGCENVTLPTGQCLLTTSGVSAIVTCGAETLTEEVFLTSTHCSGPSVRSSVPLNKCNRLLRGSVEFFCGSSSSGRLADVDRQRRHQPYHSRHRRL
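Detergent-free condition (0.00005% Triton X-100) in acetate buffer pH 5.5 with DTT. 1.5 nM enzyme and compound were pre-mixed 15 min, then 2 uM Z-FR-AMC substrate added; reaction progress from fluorescence change between first and third reads (60 s).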
LASV entry inh – inhibitors of Lassa virus binding or cell entry; 300,000 tested, 1.2% active; AID 540256; Lassa virus pseudotype entry inhibition, cell reporter; control for the full effect not named in the record; Potency, µM (series often up to 37.9 µM), for inactives: at the top dose activity change, negative = inhibition, hits mostly inhibitors; active means well fitted inhibition curve with a large enough effect; inconclusive means small, poorly fitted or top-dose-only effect, or effect the other way; inactive means flat fitted curve, though single readings scatter; tested in HEK293 cells; further: on the % scale 0 is the no-effect control and ±100 the full control effect; nearly all actives have a fitted effect of over 50% in size; luciferase read-out
MARV entry inh – blocks Marburg virus binding to or entry into cells; Marburg virus pseudotyped entry inhibition, cell reporter; control for the full effect not named in the record; about a third of the inactives were read at about 46 µM; Potency, µM (doses to about 37.8 µM), for the others: at the highest dose activity change, negative = inhibition, most hits filed as inhibitors; 300,000 tested, 1.8% active; AID 540276; active = well fitted inhibition curve with a large enough effect; inconclusive = small, poorly fitted or top-dose-only effect, or effect the other way; inactive = flat fitted curve, though single readings scatter; tested in HEK293 cells; about a fifth of its hits are not listed in these tables; further: on the % scale 0 is the no-effect control and ±100 the full control effect; luciferase read-out
SARS PLpro yeast – inhibitors of SARS-CoV papain-like protease in yeast; S. cerevisiae expressing SARS-CoV PLpro, growth rescue; control for the full effect not named in the record; Potency, µM (titrated, usually from 32.9 µM), for inactives: at the top dose activity, positive = growth rescue; 330,000 tested, 0.19% active; AID 485353; active means well fitted rising curve with a large enough effect; inconclusive means small, poorly fitted or top-dose-only effect; inactive means no such curve, though single readings can be large or run the other way; further: 0% is about no effect; nearly all actives have a fitted effect of over 55% in size; growth read by luminescence after 48 h
Cruzain inh Det – inhibitors of Trypanosoma cruzi cruzain with detergent | purified cruzain, Z-FR-AMC fluorescence, 0.01% Triton | P25779 | Potency, µM, for the others: max response, negative = inhibition, actives largely listed as inhibitors | 200,000 tested, 0.43% active;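 further: plate controls were neutral wells for no effect and buffer without enzyme for full effect; nearly all actives have a fitted effect of over 40% in size; top concentration of the series not given in the record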
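Detergent-containing arm of a paired screen for aggregation-based inhibition: 0.01% Triton X-100 present. Cruzain at 1.5 nM cleaved 2 uM Z-FR-AMC at pH 5.5 with 5 mM DTT; AMC fluorescence gain over 60 s measured activity.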
Numbers without * were called inactive; ? = inconclusive; . = not tested or not shown; & = joins results of further samples; [ ] = another dose, or the depositor's remark. Unless noted, the call rests on the fitted dose curve; in most records, active means well fitted curve in the direction sought with a large enough effect; inconclusive means small, poorly fitted or top-dose-only effect, or another doubt; inactive means no such curve, though single readings can be large; an effect the other way counts as inactive or inconclusive. Potency means the concentration at half of the fitted maximal effect.

item | SMILES | NS1 inh | RE007 growth inh | 2A StopGo | Cruzain inh noDet | LASV entry inh | MARV entry inh | SARS PLpro yeast | Cruzain inh Det
1 | CC(C)(C)c1ccc(-c2c(C#N)c(N)nc3c2CCCC3)s1 | 4% | 14% | -4% | ? | -7% | 3% | 1% | -1.1%
2 | CCC(=O)c1ccc(OCCn2cnc3ccccc32)cc1 | -9% | 9% | -13% | . | 7% | ? | -1% | .
3 | CCc1nnc(N/N=C/c2ccc(-c3ccc([N+](=O)[O-])cc3)o2)n1N | . | ? | -7% | . | 8%[46.1 µM] | ? | -8% | .
4 | Cc1ccccc1NS(=O)(=O)c1ccc(NC(=O)CSCc2ccc(Br)cc2)cc1 | -1% | -10% | . | -7% | -12% | -31% | -21% | -2.3%
5 | COc1ccc(N(C(=O)CSCC(=O)Nc2cc(C)on2)C(C(=O)NC2CCCCC2)c2ccc(O)c(O)c2)cc1 (stereo unspecified) | 2% | 4% | -5% | -9% | 1% | ? | -9% | -2.7%
6 | COc1ccc(/C=C(/NC(=O)c2ccco2)C(=O)N2CCCCC2)cc1 | 8% | -12% | 10% | . | ? | 11% | -6% | .
7 | O=C(NC1CCN(Cc2ccccc2)CC1)c1cncc(Br)c1 | . | -8% | 13% | . | -10%[46.1 µM] | ? | 0% | .
8 | Oc1ccc(/C=C/c2ccc3cccc(O)c3n2)cc1Br | -83% | ? | 27% | . | . | . | -10% | .
9 | O=c1oc2cc(Oc3c([N+](=O)[O-])cc(C(F)(F)F)cc3[N+](=O)[O-])ccc2c2c1CCCC2 | -44% | -11% | ? | 9% | 0% | ? | -15% | -5.2%
10 | COc1ccccc1NC(=O)C1=C(C)Nc2nc3ccccc3n2C1c1cccc(OC)c1OC (stereo unspecified) | . | . | -7% | -1% | 13%[46.1 µM] | -8%[46.1 µM] | . | -2.8%
11 | CCOC(=O)c1ccccc1NC1c2ccccc2C(=O)N1c1ccc(C)cn1 (stereo unspecified) | -85% | -2% | 28% | -2% | 5% | 6% | 3% | -15%
12 | CCCC1=NN(C(=O)CCc2ccccc2O)C(O)(C(F)(F)F)C1 (stereo unspecified) | 1% | 0% | -28% | -8% | -2% | 24% | 16% | -4.2%
13 | O=C(C(Sc1ccccc1)c1ccccc1)N1CCN(c2ccccc2F)CC1 (stereo unspecified) | 10% | 3% | ? | 0% | ? | ? | -3% | -1.8%
14 | CCNC(=O)c1c(NC(=O)c2cc(=O)c3ccc(C)c(C)c3o2)sc2c1CCCC2 | . | . | -1% | -10% | ? | -5%[46.1 µM] | . | -0.9%
15 | COc1ccc(-c2csc3ncnc(NCCN4CCOCC4)c23)cc1 | -22% | -17% | ? | 4% | ? | ? | 16% | -0.4%
16 | COc1ccc(CNC(=O)Cn2nc([N+](=O)[O-])c(Br)c2C)cc1 | 12% | 11% | -9% | . | -3% | 1% | ? | .
17 | CCOc1ccc(N(C)S(=O)(=O)c2ccc3[nH]cc(C(=O)NCCCOC)c(=O)c3c2)cc1 | 0% | -3% | 0% | . | . | . | -1% | .
18 | Cc1ccc(OCC(=O)Nc2cccc(S(=O)(=O)NC3=NCCCCC3)c2)cc1C | -7% | 26% | -3% | . | -15% | 6% | 0% | .
19 | Cc1cccc(NC(=O)c2ccc3c(O)c(S(=O)(=O)c4ccccc4)c(=O)[nH]c3c2)c1C | . | . | -13% | 8% | 10%[46.1 µM] | . | . | -1.1%
20 | Cc1ccccc1C(=O)NC1CC2CCCC(C1)N2C(=O)Nc1ccccc1 (stereo unspecified) | -7% | 1% | 8% | . | 2%[46.1 µM] | 7%[46.1 µM] | -2% | .
21 | O=C(O)[C@H]1CN(CCCP(=O)(O)O)CCN1 | . | . | ? | -1%&5% | . | ? | . | 0.5%&-1.2%
22 | CCN(CC)c1nc2n(c(=S)n1)CCS2 | -3% | 8% | 11% | -3% | ? | ? | -5% | -2.1%
23 | CN(C)CCCNC(=O)c1ccc(=O)[nH]n1 | 2% | -6% | -23% | . | . | . | 0% | .
24 | CC1CCc2c(sc3ncnc(NCCN4CCOCC4)c23)C1 (stereo unspecified) | 0% | -13% | -15% | . | . | -1% | -1% | .
25 | O=C1c2ccccc2S(=O)(=O)N1Cc1ccccc1[N+](=O)[O-] | -7% | 3% | 5% | . | . | . | -1% | .
26 | COc1ccc(N(CC(=O)Nc2cccnc2)S(=O)(=O)c2ccc(C)cc2)cc1Cl | -15% | 20% | 66%[activator] | . | . | -11%[46.1 µM] | 1% | .
27 | Cc1ccc(S(=O)(=O)N2CCN(C(=O)c3sccc3-c3ccccc3)CC2)cc1 | 4% | -3% | -12% | . | -23% | -6% | ? | .
28 | Cc1ccc(C(=O)OC(C)C(=O)NC2CCCCC2C)s1 (stereo unspecified) | . | -3% | -26% | . | -4% | -20% | -1% | .
29 | Cc1nc(SCC(=O)c2cc3ccccc3oc2=O)c(C#N)c(-c2ccccc2)c1C(=O)Nc1ccccc1 | 11% | . | 0% | 20µM* | 2% | ? | 22% | -1.1%
30 | O=C(CCNC(=O)c1ccc(Br)cc1)NCCCc1ccccc1 | . | -17% | 37%[activator] | . | -1%[46.1 µM] | -4% | -5% | .

New compounds follow
item | SMILES | NS1 inh | RE007 growth inh | 2A StopGo | Cruzain inh noDet | LASV entry inh | MARV entry inh | SARS PLpro yeast | Cruzain inh Det
31 | c1ccc(C2=NP(N3CCOCC3)(N3CCOCC3)=NC(N3CCOCC3)=N2)cc1 | 1% | . | . | -4% | . | -2% | 0% | 4.2%
32 | CC(c1ccccc1)n1c(N2CCN(C)CC2)nc2c1c(=O)[nH]c(=O)n2C (stereo unspecified) | -2% | 8% | -9% | . | . | . | -3% | .
33 | CSc1nc(O)c(Cc2ccccc2)c(=O)[nH]1 | -2% | 11% | . | -9% | 0% | 19%&19% | 1% | 6.0%
34 | CSc1ncccc1C(=O)N1CCN(S(=O)(=O)c2ccc(F)cc2)CC1 | 4% | 4% | -9% | . | . | . | 2% | .
35 | COc1ccc(CC(=O)Nc2nc3ccc(F)cc3s2)cc1S(=O)(=O)N1CCOCC1 | 1% | 15% | 7% | 2% | -11% | -9% | -2% | -27%
36 | Cn1c(SCC(=O)NCCN2C(=O)CSC2=O)nnc1-c1ccccc1 | 9% | -1% | 0% | 16% | 15% | -26% | -5% | -1.0%
37 | CCN(CC)CC(O)COCCC12CC3CC(CC(C3)C1)C2 (stereo unspecified) | -6% | -9% | 0% | -2% | -29% | ? | -9% | 2.1%
38 | Cc1ccc(/C=N/NC(=O)c2nnn(-c3nonc3N)c2CN(C)C)o1 | 4% | -8% | -1% | . | -9% | 17%[46.1 µM] | 6% | .
39 | CCO[C@H]1OC(C(=O)N2CCCCCCC2)=C[C@@H](C2CCCCC2)[C@@H]1CCCO | -1% | 16% | -12% | . | . | . | 1% | .
40 | CC1=C(C(=O)O)N2C(=O)C(NC(=O)Cc3ccccc3)C2SC1 (stereo unspecified) | 7% | -18% | 3% | . | 0% | 0%[46.1 µM] | -4% | .
41 | Cn1c(SCc2ccc(F)cc2)nnc1-c1ccncc1 | -3% | -9% | -6% | . | . | . | 0% | .
42 | COc1ccc(CNC(=O)CCCc2nnc3n(CCC(C)C)c(=O)c4sccc4n23)cc1 | . | . | -15% | 33% | -21%[46.1 µM] | . | . | 4.7%
43 | CC(C)(C)n1nc2c(c1NC(=O)c1ccccc1S(=O)(=O)C(F)F)CS(=O)(=O)C2 | 2% | 12% | -13% | . | . | . | 0% | .
44 | O=C(NN=C1CCCC1)c1cccs1 | 21% | . | 1% | 4% | 8% | 2% | -1% | 8.3%
45 | O=C(NC1CCCCC1)N1CCN(c2ccccc2)CC1 | -10% | -8% | 16% | 0% | -2% | -1%[46.1 µM] | -12% | 0.1%
46 | O=[N+]([O-])c1nn(-c2ccc3c(c2)OCCO3)n(O)c1=Nc1ccccc1 | -14% | 8% | 7.9µM* | ? | 7.1µM* | 1.5µM* | -50% | -7.0%
47 | C/C(=N\NC(=O)c1nn(C)c(C)c1Br)c1ccc(NC(=O)c2ccc(C)s2)cc1 | 0% | -1% | 11% | . | 27%[46.1 µM] | ? | -1% | .
48 | O=c1[nH]c2cc([N+](=O)[O-])c(NCCO)c([N+](=O)[O-])c2[nH]1 | 9% | -29% | -13% | . | 2%[46.1 µM] | 12%[46.1 µM] | 0% | .
49 | COC(C[C@H]1O[C@H]1[C@@H](O)[C@@H](C)OCc1ccccc1)OC | 4% | -14% | -22% | . | . | . | 5% | .
50 | CCOC(=O)C1=C(C)c2ccccc2OC1(C(=O)OCC)c1ccccc1 (stereo unspecified) | . | 9% | -14% | -2% | . | . | -21% | 0.7%
51 | CC1=C(C(=O)OC2CCCCC2)C(c2cccc([N+](=O)[O-])c2)NC(=O)N1 (stereo unspecified) | 1% | 4% | -12% | . | . | . | 0% | .
52 | CS(=O)(=O)c1ccc(Cl)c(NC(=O)COC(=O)c2cccc(C#N)c2)c1 | 2% | -2% | 1% | . | -7% | -4%[46.1 µM] | 2% | .
53 | COC(=O)c1c(NC(=O)Cc2cccs2)sc(C)c1C | -52% | -21% | -8% | -8% | 10% | -20% | -6% | -5.9%
54 | Cc1ccccc1-c1nc(CNC(=O)Nc2ccccc2)c(C)o1 | . | . | 30%[activator] | -3% | 9%[46.1 µM] | . | . | -4.6%
55 | Cc1sc(NC(=O)CSC2=NCCS2)nc1-c1ccccc1 | 19% | -8% | ? | -17% | ? | ? | -3% | -1.0%
56 | CCc1ccc(Nc2ncnc3sc4c(c23)CCCC4)cc1 | . | . | 0% | 5% | -25%[46.1 µM] | . | . | -5.9%
57 | CCCCCOC(=O)c1ccc(OC(=O)c2cncc(Br)c2)cc1 | -9% | -14% | . | -1% | 19% | -1% | -6% | -3.6%
58 | CCOc1ccccc1NC(=O)CN1c2ccccc2S(=O)(=O)c2ccccc21 | . | . | -8% | 5% | -5%[46.1 µM] | . | . | 1.7%
59 | CCc1ccc(NC(=O)[C@H](Cc2c[nH]c3ccccc23)NC(=O)[C@@H]2Cc3ccccc3CN2)cc1 | 24% | -13% | 8% | . | . | . | 6% | .

High-throughput results from PubChem BioAssay.
